RN4220 kill = kills Staphylococcus aureus RN4220; 330,000 tested, 0.33% active; inhibition, % (test concentration not listed); S. aureus RN4220 growth, OD600, 16 h;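 active = z-score of -3 or lower and OD600 up to 0.18 on both plates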;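 note: plate controls were untreated cells for no effect and reference antibiotic for full effect; stock transfer was 100 nL into about 80 µL; one replicate is shown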
Mtb hypoxia rep = Mtb hypoxia fluorescent reporter inhibition | fluorescence inhibition, % (no concentration beside the values) | AID 1159583 | 300,000 tested, 0.1% active | M. tuberculosis hypoxia-regulated fluorescent reporter, fluorescence;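 active = 35 to 45% if threefold the growth effect, above 45% if 1.5-fold the growth effect; inactive = the rest, general growth blockers included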;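 note: wells of about 50 µL received 100 nL stock; 0% = vehicle wells and 100% = reference inhibitor wells; whole bacteria with a GFP reporter of the hypoxia response; strong numbers were not always called active; many hits fall short of the cut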
BJeLR lethal = kills HRASV12-expressing BJeLR cells; BJeLR (HRASV12) viability, CellTiter-Glo ATP luminescence, 48 h; reference of the scale not given here; inhibition, % (test concentration not listed); 300,000 tested, 0.17% active; AID 1554;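 active = replicate mean above 50%; inconclusive = above 50% but judged a plate artefact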;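 note: 50 nL library stock added to about 25 µL; numbers are from one replicate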
PrP 5UTR inh = inhibition of PrP 5' UTR reporter expression; 340,000 tested, 0.35% active; cell-based PrP 5' UTR mRNA reporter, plate reader; inhibition, % (no concentration beside the values);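 active = every replicate at 50% or more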;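 note: 0 = median of the neutral control wells; tested in H4 reporter cells; numbers are from one replicate; inactives centre near -14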
Autofluor counter = flagged as autofluorescent in microsphere protease counterscreen; fluorescence intensity (no concentration beside the values); 360,000 tested, 3.1% active; compound autofluorescence counterscreen, microsphere flow cytometry; active compounds read high; AID 624483;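 active = at least 3 SD above the mean of all compounds, about 16000 in these data; inconclusive = too few beads counted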;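 note: 100 nL of 1 mM stock went into each well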
ugtP null kill = compounds lethal to S. aureus RN4220 ugtP deletion mutant. OD600 growth, 16 h; some inactives read as strong as hits. growth inhibition, % (concentration not given with the values). 330,000 tested, 0.54% active. AID 1259309;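 active = z-score under -3 and OD600 up to 0.15 on both plates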;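 note: plate controls were untreated wells for no effect and antibiotic for full effect; wells of about 80 µL received 100 nL stock; the first replicate is given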
Mtb hypoxia rep growth = recorded beside Mtb hypoxia rep, whose call it bears; growth inhibition, %; measured here: M. tuberculosis growth (absorbance);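 0% = vehicle and 100% = reference antibiotic; read after six days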
* marks the source's active call; other numbers are inactive results; ? = inconclusive; · = no result given.

SMILES | RN4220 kill | Mtb hypoxia rep | Mtb hypoxia rep growth | BJeLR lethal | PrP 5UTR inh | Autofluor counter | ugtP null kill
COc1ccccc1-c1c(C)nn2c(N3CCC4(CC3)OCCO4)cc(C)nc12 | 5.4 | 4 | 12 | -2 | -16 | 3266 | 3
Cn1c(C(=O)NCc2cccnc2)cc2sc(Cl)cc21 | -0.5 | -3 | 4 | 10 | -25 | 20564* | -7
COCCNC(=O)CN(C(=O)c1ccc(N2CCCC2)nc1)c1ccc(Cl)cc1 | 2.7 | 16 | 6 | -1 | -5 | 3030 | -3
O=C1NC(=Nc2ccccc2)S/C1=C\C=C\c1ccco1 | 5.3 | 9 | 1 | -2 | -30 | 2325 | 2
COc1ccc(CNC(=O)c2cnc3scc(C)n3c2=O)cc1 | 4.5 | -4 | 11 | 2 | -27 | 5440 | 13
CCOC(=O)c1c(C)n(CCNC(C)=O)c2ccc(O)cc12 | 4.6 | 14 | 6 | -5 | -21 | 13092 | 1
COc1cccc(C2c3[nH]c4ccccc4c3C[C@H]3C(=O)N(CCCCCO)CC(=O)N23)c1 (stereo not given in full) | -3.1 | -8 | 8 | -3 | -10 | 3797 | -6
O=C(CCc1n[nH]c(=O)[nH]c1=O)N1CCCCC1 | 2.6 | 0 | 14 | 11 | -85 | 5444 | 10
CCCn1nc(NS(=O)(=O)c2cccc3nonc23)c2cc3ccccc3nc21 | 35 | -8 | -6 | -4 | -21 | 6167 | -10
CCn1c2ccccc2c2nnc(SCCCn3c(=O)[nH]c4ccccc43)nc21 | 3.1 | 2 | 10 | · | 2 | 8036 | 1
COC(CNC(=O)c1ccc2c(c1)ncn2-c1ccc(C)cc1C)OC | 1.3 | -1 | 5 | -2 | -17 | 3619 | 3
O=C1CC(N2CCC(c3nc4ccccc4[nH]3)CC2)C(=O)N1c1ccccc1F (stereo not given) | · | · | · | -2 | -7 | 2065 | ·
O=S1(=O)CC/C(=N\Nc2ccc(F)cc2)c2ccsc21 | · | · | · | -29 | -16 | 3326 | ·
COc1cc2c(C(=O)N3CCN(Cc4ccc5c(c4)OCO5)CC3)cn(C)c(=O)c2cc1OC | 2.5 | 6 | 20 | -5 | -11 | 3518 | -3
O=C(CCS(=O)(=O)c1ccc(Cl)cc1)Nc1nccs1 | -2.3 | -5 | 2 | · | -67 | 4489 | 0
CN1C(=O)C(C)(C)c2cc(S(=O)(=O)N3CCN(c4ccccc4)CC3)ccc21 | 4.2 | -1 | 5 | 3 | -6 | 4280 | 0
Cc1ccc(C2CC(c3cccs3)=NN2C(=O)CSc2nc3ccccc3o2)cc1 (stereo not given) | -0.1 | 17 | 10 | 7 | 4 | 3606 | -6
COc1c(C(=O)NC(=S)Nc2nnn(C)n2)cc2ccccc2c1Br | 0.0 | -1 | 1 | 0 | -5 | 4197 | -6
CCOc1cc(NC(=S)NC)c(OCC)cc1NC(=O)c1ccc(OC)cc1 | 13 | -3 | 3 | -9 | -21 | 4700 | 8
COc1ccc(CN(Cc2ccc(OC)cc2)C(=O)c2cccs2)cc1 | 6.4 | 10 | 2 | 3 | · | 5612 | 43
COc1ccc(NC2CC(=O)N(c3ccccc3)C2=O)cc1 (stereo not given) | 1.3 | · | · | -1 | -21 | 4274 | 4
COc1ccc(C(C(=O)NC2CCCC2)N(C(=O)c2csnn2)C2CCCC2)cc1 (stereo not given) | -1.3 | -12 | 7 | 4 | -19 | 3666 | 14
Cc1ccc(N2C(=O)N(CC(=O)Nc3cc(F)ccc3C)C(=O)C2C)cc1 (stereo not given) | 3.1 | 2 | 3 | -8 | 0 | ? | 3
CCCC(=O)Nc1sc(C)c(C)c1C(=O)Nc1cccc(C)c1 | 2.4 | -2 | 6 | -6 | -3 | 12570 | -1
CCN1C(=O)/C(=c2\sc3nc(=O)c(Cc4ccccc4)nn3c2=O)c2ccccc21 | · | · | · | -1 | -17 | 4414 | ·
(next part)
SMILES | RN4220 kill | Mtb hypoxia rep | Mtb hypoxia rep growth | BJeLR lethal | PrP 5UTR inh | Autofluor counter | ugtP null kill
COC(=O)c1sccc1NC(=O)c1cc(-c2ccc(C)cc2C)nc2ccccc12 | -5.8 | · | · | -2 | 2 | 2644 | 12
Cc1ccccc1NC(=O)NCCc1nc2ccccc2[nH]1 | 1.2 | -2 | 6 | -17 | -4 | 4747 | -1
COc1ccc(-n2nc(C(=O)NCC(=O)N3CCN(c4ccccc4OC)CC3)c3ccccc3c2=O)cc1OC | 5.7 | 2 | -5 | -7 | -6 | 6027 | 6
CSc1nnc(SCC(=O)N(C)c2c(N)n(Cc3ccccc3)c(=O)[nH]c2=O)s1 | -1.8 | -1 | -16 | 3 | -15 | · | -3
CC(C(=O)Nc1ncccn1)(c1ccccc1)c1ccccc1 | 6.9 | 4 | -2 | 1 | -17 | 3405 | 12
Cc1ccc(-n2ncc3c2CC(C)(C)CC3NC(=O)CN2CCCC2=O)cc1 (stereo not given) | 7.0 | 4 | 4 | -2 | -12 | · | 18
CCOC(=O)N1CCN(c2nc(-c3ccc(Cl)cc3)cs2)CC1 | 11 | -3 | -7 | -13 | -41 | 7571 | 7
Cc1nc2ccc(NC(=O)c3cccs3)cc2s1 | 1.9 | 1 | 3 | 3 | -51 | 5283 | 25
COc1cccc(C(C)NC(=S)NCc2ccc(Cl)cc2)c1 (stereo not given) | 6.0 | 14 | 2 | -10 | -17 | 4271 | 5
O=S(=O)(c1ccc(SCCO)nc1)N1CCOCC1 | -0.9 | -8 | 2 | · | -21 | 9493 | -1
CCOc1ccc(NCC2CCOC(C)(C)C2)cc1 (stereo not given) | 3.7 | · | · | 1 | -29 | 4593 | -5
Cc1ccccc1NC(=O)Cn1nc(-c2ccc(Cl)s2)ccc1=O | 4.4 | 2 | 1 | 0 | 7 | 5954 | 9
CCN1CCn2c3c(c4cc(Cl)ccc42)CCCC31 (stereo not given) | -9.5 | · | · | -2 | -1 | 2386 | 13
CN(C)c1ccc(C(=O)NN=Cc2ccccn2)cc1 | -0.3 | 2 | 9 | · | · | · | 1
COc1ccc(CNC(=O)C2=CC(c3ccc(OC)c(OC)c3)=NS(=O)(=O)N2C)cc1 | 6.4 | 4 | 1 | 3 | -9 | 5136 | 3
CCC(CC)C(=O)OCC(=O)C1(O)CCC2C3CCC4=CC(=O)CCC4(C)C3C(O)CC21C (stereo not given) | 5.9 | 1 | 3 | · | 6 | 3673 | -4
CC1(C)CC(=O)C(N=Nc2ccc(-c3ccccc3)cc2)=C(O)C1 | 1.8 | -2 | 0 | -4 | -12 | 4376 | -3
C1CN(c2nc3nonc3nc2N2C[C@H]3CC[C@H]2C3)CCS1 | 6.5 | 11 | 2 | -1 | -4 | 4296 | 4
COc1ccc(CN2CCN(c3nc4ccccc4s3)CC2)cc1 | 0.7 | 12 | 5 | 2 | -22 | 2976 | 3
COCCNC(=O)/C(C#N)=C/C=C/c1ccccc1[N+](=O)[O-] | 1.1 | 5 | 7 | 0 | -32 | 5884 | 4
Cc1ccc(/C=C/C(=O)Nc2nn[nH]n2)o1 | 3.0 | 8 | -1 | 6 | -8 | 1966 | 13
O=C(CN1C(=O)c2ccccc2C1=O)NCC1CCCO1 (stereo not given) | -1.2 | -5 | 2 | -4 | -12 | 2885 | -3
O=C(Nc1cc(=O)[nH]c2nc(-c3ccc(Cl)cc3)nn12)c1ccccc1 | 25 | · | · | -2 | · | · | 3
CCOC(=O)c1ccc[n+](CC(=O)Nc2ccccc2OC(F)F)c1 | 3.1 | 14 | 7 | -1 | 21 | 4569 | 7
CCC(C)CCCCNC1=NCCS1 (stereo not given) | 5.3 | 0 | 0 | 5 | -27 | 3766 | 7

Arranged by number of heavy atoms (falling): part of the list above.
SMILES | RN4220 kill | Mtb hypoxia rep | Mtb hypoxia rep growth | BJeLR lethal | PrP 5UTR inh | Autofluor counter | ugtP null kill
CCN1CCn2c3c(c4cc(Cl)ccc42)CCCC31 (stereo not given) | -9.5 | · | · | -2 | -1 | 2386 | 13
Cc1nc2ccc(NC(=O)c3cccs3)cc2s1 | 1.9 | 1 | 3 | 3 | -51 | 5283 | 25
Cc1ccc(/C=C/C(=O)Nc2nn[nH]n2)o1 | 3.0 | 8 | -1 | 6 | -8 | 1966 | 13

(next part)
SMILES | RN4220 kill | Mtb hypoxia rep | Mtb hypoxia rep growth | BJeLR lethal | PrP 5UTR inh | Autofluor counter | ugtP null kill
Cc1cc(NC(=O)CSc2nc(-c3ccc(F)cc3)cs2)no1 | 1.0 | 6 | -3 | 2 | 0 | 3813 | 0
Cc1cc(=O)[nH]c2c3ccccc3nn12 | 0.8 | -3 | -1 | -2 | -15 | 4030 | -8
CCNC(=S)NNC(=O)CC(C)C | 1.3 | 6 | 13 | -4 | -20 | 6254 | 6
CCOC(=O)c1ccc(N/C=C/C(=O)C(C)(C)C)cc1 | · | · | · | 3 | -55 | 2499 | ·
O=C(CC1CC=CCCCC(=O)OC(c2ccccc2)CNC1=O)NC(CO)Cc1ccccc1 (stereo not given) | 0.5 | -5 | 10 | · | · | · | -1
CC(C)(C)NC(=O)CSc1nncn1NCc1ccccc1 | 5.8 | 16 | 11 | 13 | -7 | 8309 | -5
CCCCNC(=O)CCCCC(=O)NN=Cc1ccccc1Cl | 3.9 | 3 | 5 | · | · | · | 1
CCOc1ccc(S(=O)(=O)Nc2cccc(C(=O)N(C)CC(=O)Nc3cccc(OC)c3)c2)cc1 | 1.2 | 3 | -7 | -5 | 12 | 4284 | 1
Cn1nc(-c2ccccc2)cc1NC(=O)c1ccc(Cl)cc1 | 0.6 | 14 | 16 | · | -15 | 3680 | -16
COc1ccc2nc(NC(=O)C34CC5CC(CC(NC(C)=O)(C5)C3)C4)sc2c1 | -10 | -17 | -11 | -9 | -17 | 4244 | -19
CCOC(=O)c1cccnc1SCC(=O)N(CC)c1cccc(C)c1 | 2.9 | 7 | 4 | -6 | -6 | 11591 | 4
O=C(NC1CCCCCC1)C(=O)NC1CC1 | 4.1 | 4 | 0 | -8 | -32 | 3737 | 8
COc1cc(CCCN2C(=S)NC[C@@H]2CCCCN)cc(OC)c1OC | · | · | · | -1 | -15 | 4194 | ·
Cc1ccccc1C(=O)Nc1cccc(-c2ccc(N3CCOCC3)nn2)c1 | 1.9 | 2 | -2 | -4 | -49 | 6577 | -2
O=C(CN1CCCCC1)c1ccc2c(c1)OCO2 | 2.0 | 3 | -2 | -1 | -18 | 3818 | 3
CC(C)CC1NC(=O)N(Cc2cc(=O)n3ccsc3n2)C1=O (stereo not given) | 7.5 | 2 | 5 | 6 | -8 | 4208 | 7
O=C(CCc1c[nH]c2ccccc12)NC(Cc1c[nH]c2ccccc12)C(=O)O (stereo not given) | 0.7 | 2 | -8 | 1 | · | 3182 | -2
C[C@@]12C(=O)N(c3cccc(Br)c3)C(=O)N1C(c1ccc(Cl)cc1)C1C(=O)N(C3CCCCC3)C(=O)C12 (stereo not given in full) | -3.9 | 10 | 6 | · | · | · | -33
CN(CC(=O)Nc1ccccc1Br)C(=O)c1cc([N+](=O)[O-])ccc1N1CCOCC1 | 1.3 | -10 | 10 | -5 | -16 | ? | 1
O=C(O)CCCCn1c(SCc2cc(=O)n3cc(Cl)ccc3n2)nc2ccsc2c1=O | 1.7 | -2 | 16 | 5 | -14 | 2456 | 50
O=C(Cc1cccc(NC(=O)C2CCN(C(=O)C3CCCC3)CC2)c1)Nc1cccc(C(=O)N2CCCCC2)c1 | 1.4 | -7 | -2 | · | -10 | 3686 | 7
O=C(CN(C1CCCCC1)S(=O)(=O)c1ccc(Br)cc1)NCc1cccnc1 | 1.5 | -3 | 6 | -1 | -7 | 5502 | 0
CC(C)NC(=O)C1CCN(C2CCN(C(=O)Cc3ccc4c(c3)OCO4)CC2)CC1 | 0.9 | 6 | 1 | 5 | -10 | 4416 | -1
CN(C(=O)COC(=O)c1ccc(Cl)cc1N)C1CCCCC1 | 7.8 | 4 | 11 | -4 | -29 | 3951 | 4
Nc1cc(Cl)ccc1C(=O)OCC(=O)NC1CCS(=O)(=O)C1 (stereo not given) | 5.2 | · | · | -4 | -5 | 4558 | 2
Cc1ccc(SCc2c(C(=O)N/N=C/c3cccnc3)nnn2-c2nonc2N)cc1 | · | · | · | -1 | -10 | 6180 | ·

Taken from above.
`O=C(CC1CC=CCCCC(=O)OC(c2ccccc2)CNC1=O)NC(CO)Cc1ccccc1` (stereo not given) in ugtP null kill is listed with -1
`CN(CC(=O)Nc1ccccc1Br)C(=O)c1cc([N+](=O)[O-])ccc1N1CCOCC1` in Mtb hypoxia rep is listed with -10
